Screening results as filed in PubChem BioAssay.
BJeLR viab HTS: BJeLR cell viability loss, primary screen, luminescence, CellTiterGlo ATP; BJeLR fibroblasts viability, 48 h; HRASV12, hTERT and SV40 LT/ST transformed; viability loss activity score, % (concentration not given with the values); hit rate 0.64% among 30,000; in the data active = viability loss activity score above about 50%; about a fifth of its hits are not listed in these tables;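 also: higher score means fewer live cells and less ATP luminescence; stock transfer was 50 or 100 nL into about 30 µL; 0% = vehicle wells and 100% = a reference killing control; one replicate is shown; the record names a cut of 85%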
A1 inh: inducers of caspase activity in MEF A1-2A-BIM cells, primary screen, A1 inhibitor project, cell-based, CaspaseGlo luminescence; caspase-Glo luminescence, 3 h; percent of clofoctol signal, DMSO as zero; caspase activation, % (no concentration beside the values); hit rate 0.51% among 21,000;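 active = most replicate scores above 10, or exactly half above 10 with mean activity above 10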;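 also: effector caspase 3 and 7 activity cleaving a DEVD luciferin substrate; 50 nL library stock added to about 30 µL; numbers are from one replicate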
An asterisk follows results filed as active; · = not tested or not shown. Only part of the results is shown. The share of hits here may be higher or lower than overall.

Value order – BJeLR viab HTS	A1 inh
1	Cc1ccc(S(=O)(=O)Nc2cccc3c2O[C@@H](CN(C)S(=O)(=O)c2cn(C)cn2)[C@H](C)CN([C@@H](C)CO)C3=O)cc1
    3.5	·
2	CC(C)NC(=O)N(C)C[C@@H]1Oc2c(NS(=O)(=O)c3ccc(Cl)cc3)cccc2C(=O)N([C@H](C)CO)C[C@@H]1C
    -4.8	·
3	Cc1noc(C)c1S(=O)(=O)N(C)C[C@H]1Oc2ccc(NS(=O)(=O)c3ccc(Cl)cc3)cc2C(=O)N([C@@H](C)CO)C[C@H]1C
    -1.3	0.4
4	C[C@@H]1CN([C@@H](C)CO)C(=O)c2cc(NS(C)(=O)=O)ccc2O[C@@H]1CN(C)C
    2.1	-0.1
5	Cc1cc(C(F)(F)F)nc(SCc2ccc(C(=O)O)o2)n1
    -5.0	1.0
6	Cc1ccc(S(=O)(=O)N(C)C[C@@H]2Oc3c(NC(=O)C4CCCCC4)cccc3C(=O)N([C@@H](C)CO)C[C@H]2C)cc1
    -2.7	·
7	c1ccc(Oc2ncnc3sc4c(c23)CCCC4)cc1
    0.5	1.0
8	CC(C)NC(=O)Nc1ccc2c(c1)C(=O)N([C@@H](C)CO)C[C@@H](C)[C@@H](CN(C)S(=O)(=O)c1ccccc1)O2
    1.9	-0.1
9	O=C(c1cnn(-c2ccccc2)c1-n1cccc1)N1CCCCC1
    -2.6	0.0
10	COc1ccc(C(=O)CC(=O)O)c2c1C=CC(C)(C)O2
    -6.4	0.2
11	CN1C(=O)/C(=C2\SC(=S)N(CC3CCCO3)C2=O)c2ccccc21 (stereo unspecified)
    -3.5	0.8
12	C[C@@H]1CN([C@H](C)CO)C(=O)c2cc(NC(=O)Cc3ccccc3)ccc2O[C@H]1CN(C)C(=O)Nc1ccc(F)cc1
    -5.1	-0.7
13	O=C1CC(c2csc(-c3ccccc3)n2)C2(CCCCC2)O1 (stereo unspecified)
    3.8	0.0
14	CC(C)(C)c1nccc(-c2nn(-c3ccc(F)cc3)ccc2=O)n1
    -8.6	-0.6
15	C[C@H](CO)N1C[C@H](C)[C@@H](CN(C)S(=O)(=O)c2ccc(Cl)cc2)Oc2c(NS(C)(=O)=O)cccc2C1=O
    7.6	·
16	Fc1ccc(Cn2ccnc2-c2ccc(C(F)(F)F)cc2)cc1
    -0.4	-0.2
17	C[C@@H]1CN([C@@H](C)CO)C(=O)c2cccc(NC(=O)Nc3ccccc3)c2O[C@@H]1CN(C)Cc1ccc(-c2ccccc2)cc1
    -0.1	·
18	NC(=S)Nc1nc2ccccc2[nH]c1=O
    -1.2	·
19	CC1CCc2nn(CC(=O)N3CCCC3)cc2C1 (stereo unspecified)
    -5.1	-0.3
20	c1coc(-c2cn3ccc4ccccc4c3n2)c1
    9.6	-5.6
21	C[C@@H]1CN([C@@H](C)CO)C(=O)c2cccc(NS(=O)(=O)c3ccc(Cl)cc3)c2O[C@H]1CN(C)Cc1ccc(-c2ccccc2)cc1
    -7.4	·
22	C[C@H](CO)N1C[C@H](C)[C@@H](CN(C)Cc2ccc(C(=O)O)cc2)Oc2ccc(NS(=O)(=O)c3cccs3)cc2C1=O
    2.4	-0.9
23	CCOC(Cn1c(SCc2c(F)cccc2Cl)nc2ccccc2c1=O)OCC
    -2.4	-0.9
24	CCCCCC1C(=O)O/C(=C\C(=O)O)C1=O (stereo unspecified)
    -3.1	0.1
25	Cc1ccc(S(=O)(=O)Nc2ccc3c(c2)C(=O)N([C@@H](C)CO)C[C@H](C)[C@@H](CN(C)S(=O)(=O)c2cn(C)cn2)O3)cc1
    -0.1	0.3
26	C[C@@H]1CN([C@H](C)CO)C(=O)c2cc(NC(=O)c3ccncc3)ccc2O[C@@H]1CN(C)Cc1ccncc1
    -2.1	0.1
27	COc1ccc(S(=O)(=O)Nc2cccc3c2O[C@@H](CN(C)C(=O)NC(C)C)[C@H](C)CN([C@@H](C)CO)C3=O)cc1
    4.1	·
28	Cc1cc(OCc2ccc(Br)cc2)nc(-c2ccccc2O)n1
    -0.4	1.0
29	C[C@@H]1CN([C@@H](C)CO)C(=O)c2cc(NC(=O)Nc3ccc(F)cc3)ccc2O[C@@H]1CN(C)S(=O)(=O)c1ccccc1
    -4.1	·
30	Cn1c(=O)c(Nc2ccccc2)c2c3c(cccc31)C(=O)c1ccccc1-2
    -5.1	-0.1
31	O=C1CSC2=NC3=C(CCc4ccccc43)C(c3cccs3)N12 (stereo unspecified)
    1.3	0.1
32	Cc1cc(C)cc(-n2c(SCC(=O)NCc3ccc(F)cc3)nc3c(c2=O)SCC3)c1
    -3.3	0.9
33	CC(C)c1ccc(N2C=Nc3ccc(C(C)C)cc3C2)cc1
    0.0	-0.5
34	COc1ccc(NC(=O)Nc2cccc3c2O[C@H](CN(C)C(=O)NC2CCCCC2)[C@@H](C)CN([C@@H](C)CO)C3=O)cc1
    -1.6	·
35	C[C@@H]1CN([C@@H](C)CO)C(=O)c2cc(NC(=O)Cc3cn(C)c4ccccc34)ccc2O[C@H]1CN(C)Cc1ccc(-c2ccccc2)cc1
    -5.3	1.2
36	Cc1noc(C)c1NC(=O)N(C)C[C@@H]1Oc2c(NC(=O)C3CCCCC3)cccc2C(=O)N([C@H](C)CO)C[C@@H]1C
    5.0	·
37	C[C@@H]1CN([C@H](C)CO)C(=O)c2cc(NC(=O)C3CCCCC3)ccc2O[C@H]1CN(C)S(=O)(=O)c1cn(C)cn1
    0.3	-0.3
38	C[C@H]1CN([C@@H](C)CO)C(=O)c2cccc(NC(=O)C3CCOCC3)c2O[C@@H]1CN(C)S(=O)(=O)c1ccc(Cl)cc1
    1.8	·
39	CCOC(=O)Cc1csc(NC(=O)c2ccccc2)n1
    -1.8	-5.0
40	CCc1ccc(C2C(C#N)=C(C)NC3=C2C(=O)CC(C)(C)C3)cc1 (stereo unspecified)
    -2.7	-0.8
41	C[C@@H]1CN([C@H](C)CO)C(=O)c2cccc(NC(=O)C3CC3)c2O[C@@H]1CN(C)S(=O)(=O)c1cccs1
    -5.5	·
42	FC(F)(F)c1ccc(-c2n[nH]c(=S)s2)nc1
    1.2	-2.1
43	C[C@@H]1CN([C@H](C)CO)C(=O)c2cc(NC(=O)CCCN(C)C)ccc2O[C@@H]1CN(C)Cc1ccc(C(F)(F)F)cc1
    2.5	-1.7
44	COc1ccc(NC(=O)Nc2cccc3c2O[C@@H](CN(C)C)[C@H](C)CN([C@@H](C)CO)C3=O)cc1
    -1.3	·
45	COc1ccc(CN(C)C[C@@H]2Oc3c(NC(=O)c4nc5ccccc5s4)cccc3C(=O)N([C@@H](C)CO)C[C@H]2C)cc1
    -0.6	·
46	CCCCN1Cc2c(nc3cc(C(C)(C)C)[nH]n3c2=O)C1=O
    -1.0	1.2
47	COc1ccc(CN(C)C[C@@H]2Oc3c(NC(=O)C4CCCCC4)cccc3C(=O)N([C@H](C)CO)C[C@H]2C)cc1
    -1.1	·
48	COc1ccc(S(=O)(=O)Nc2cccc3c2O[C@H](CN(C)Cc2ccc(Oc4ccccc4)cc2)[C@H](C)CN([C@@H](C)CO)C3=O)cc1
    -2.8	·
49	Nc1nc(N2CCCC2)ncc1S(=O)(=O)c1ccc(C(F)(F)F)cn1
    2.0	0.3
50	C[C@H]1CN([C@@H](C)CO)C(=O)c2cc(NS(C)(=O)=O)ccc2O[C@@H]1CN(C)Cc1ccc(C(F)(F)F)cc1
    4.5	0.4
51	C[C@H]1CN([C@@H](C)CO)C(=O)c2cc(NC(=O)Nc3ccccc3)ccc2O[C@H]1CN(C)S(=O)(=O)c1ccc(Cl)cc1
    -1.4	-0.2
52	COc1ccccc1-n1cc(-c2ccccc2)c2c(SCC(C)C)ncnc21
    -6.0	·
53	S=C(NCc1ccccc1)NC(Cc1ccccc1)c1ccccc1 (stereo unspecified)
    1.2	0.3
54	C[C@@H]1CN([C@@H](C)CO)C(=O)c2cc(NS(=O)(=O)c3cn(C)cn3)ccc2O[C@H]1CN(C)S(=O)(=O)c1ccc(F)cc1
    0.7	0.3
55	C[C@@H]1CN([C@@H](C)CO)C(=O)c2cc(NC(=O)Nc3ccc4c(c3)OCO4)ccc2O[C@H]1CN(C)S(=O)(=O)c1ccc(Cl)cc1
    -0.3	0.5
56	COc1ccc(S(=O)(=O)Nc2cccc3c2O[C@@H](CN(C)Cc2ccc(Cl)c(Cl)c2)[C@@H](C)CN([C@@H](C)CO)C3=O)cc1
    0.7	·
57	COc1ccc(S(=O)(=O)N(C)C[C@H]2Oc3c(NC(=O)Nc4cccc5ccccc45)cccc3C(=O)N([C@H](C)CO)C[C@H]2C)cc1
    -3.0	·
58	C[C@H](CO)N1C[C@H](C)[C@@H](CN(C)Cc2ccc3c(c2)OCO3)Oc2ccc(NC(=O)Cn3cnnn3)cc2C1=O
    -0.7	0.3
59	COc1ccc(NC(=O)Nc2cccc3c2O[C@H](CN(C)S(=O)(=O)c2cccs2)[C@@H](C)CN([C@@H](C)CO)C3=O)cc1
    5.6	·
60	CC(C)CNc1cc(Cl)c2noc3c2c1C(=O)c1ccccc1-3
    10.6	·

In a second layout: results already given
15. C[C@H](CO)N1C[C@H](C)[C@@H](CN(C)S(=O)(=O)c2ccc(Cl)cc2)Oc2c(NS(C)(=O)=O)cccc2C1=O
  BJeLR viab HTS: 7.6 | A1 inh: ·

37. C[C@@H]1CN([C@H](C)CO)C(=O)c2cc(NC(=O)C3CCCCC3)ccc2O[C@H]1CN(C)S(=O)(=O)c1cn(C)cn1
  BJeLR viab HTS: 0.3 | A1 inh: -0.3

23. CCOC(Cn1c(SCc2c(F)cccc2Cl)nc2ccccc2c1=O)OCC
  BJeLR viab HTS: -2.4 | A1 inh: -0.9

57. COc1ccc(S(=O)(=O)N(C)C[C@H]2Oc3c(NC(=O)Nc4cccc5ccccc45)cccc3C(=O)N([C@H](C)CO)C[C@H]2C)cc1
  BJeLR viab HTS: -3.0 | A1 inh: ·

Other compounds follow:
Value order – BJeLR viab HTS	A1 inh
61	Cc1noc(C)c1S(=O)(=O)Nc1ccc2c(c1)C(=O)N([C@H](C)CO)C[C@@H](C)[C@@H](CN(C)Cc1ccc(-c3ccccc3)cc1)O2
    -5.1	-0.5
62	C[C@@H]1CN([C@H](C)CO)C(=O)c2cc(NC(=O)Cc3cn(C)c4ccccc34)ccc2O[C@H]1CN(C)Cc1ccc(C(=O)Nc2ccccc2N)cc1
    1.3	·
63	Cc1ccc(/C=C/C(=O)NC(=S)N2CCN(c3ccc(F)cc3)CC2)cc1
    -3.9	-0.5
64	C[C@@H]1CN([C@H](C)CO)C(=O)c2cc(NC(=O)NC3CCCCC3)ccc2O[C@@H]1CN(C)Cc1ccc2c(c1)OCO2
    2.4	0.6
65	Cn1c(=O)c2c(nc(SCC(=O)c3ccccc3)n2CCCc2ccccc2)n(C)c1=O
    8.5	-0.7
66	CC(C)CN(CC(C)C)C(=O)Nc1ccccc1C(F)(F)F
    8.6	1.1
67	CC(C)NC(=O)Nc1ccc2c(c1)C(=O)N([C@H](C)CO)C[C@@H](C)[C@H](CN(C)C(=O)NC(C)C)O2
    6.5	0.5
68	CC12CC3(C)CC(C)(C1)CC(C(=O)O)(C2)C3
    -2.9	0.3
69	CCOc1ccccc1N=C1NC(=O)CS1
    -1.6	-0.9
70	CC(=O)NC(C)c1nc2ccccc2n1Cc1ccccc1 (stereo unspecified)
    2.5	-0.7
71	C[C@@H]1CN([C@H](C)CO)C(=O)c2cc(NC(=O)c3ccncc3)ccc2O[C@@H]1CN(C)S(=O)(=O)c1cn(C)cn1
    -0.3	-0.1
72	CCOC(=O)c1sc(COc2ccc3nonc3c2)nc1C
    -1.9	-5.4
73	Cc1noc(C)c1NC(=O)N(C)C[C@H]1Oc2ccc(NC(=O)Cc3cn(C)c4ccccc34)cc2C(=O)N([C@H](C)CO)C[C@H]1C
    -1.4	0.2
74	COC(=O)c1ccc(CSc2ccc3nnc(-c4ccc(Cl)cc4)n3n2)o1
    -6.7	0.0
75	Cc1ccc(S(=O)(=O)Nc2ccc3c(c2)C(=O)N([C@H](C)CO)C[C@@H](C)[C@H](CN(C)Cc2ccc(C(F)(F)F)cc2)O3)cc1
    -8.4	-0.5
76	CN(C)c1ccc(Cc2ccc(N(C)C)cc2)cc1
    2.4	-0.1
77	COc1ccccc1CC(=O)Nc1cccc(NC(C)=O)c1
    -1.1	0.6
78	COc1ccc(CNC(=O)c2cc(=O)[nH]c3ccc(S(=O)(=O)N4CCCCC4C)cc23)cc1 (stereo unspecified)
    2.2	-0.4
79	C=C[C@H]1C(=C)CCC2[C@H]1CC[C@@]1(O)[C@@](C)(C(=O)O)[C@H](O)CC[C@]21C (stereo partly specified)
    -3.6	0.6
80	COc1ccc(NC(=O)N(C)C[C@@H]2Oc3c(NS(C)(=O)=O)cccc3C(=O)N([C@H](C)CO)C[C@@H]2C)cc1
    -3.1	·
81	C[C@@H]1CN([C@H](C)CO)C(=O)c2cc(NC(=O)Nc3ccc4c(c3)OCO4)ccc2O[C@H]1CN(C)S(C)(=O)=O
    -5.6	0.2
82	C[C@H]1CN([C@@H](C)CO)C(=O)c2cccc(NC(=O)C3CC3)c2O[C@@H]1CN(C)C(=O)Nc1ccc(C(F)(F)F)cc1
    -8.1	·
83	C[C@H](CO)N1C[C@H](C)[C@@H](CN(C)S(C)(=O)=O)Oc2ccc(NC(=O)Nc3cccc4ccccc34)cc2C1=O
    0.9	-0.2
84	CNC[C@H]1Oc2ccc(NS(=O)(=O)c3ccc(F)cc3)cc2C(=O)N([C@@H](C)CO)C[C@@H]1C
    -3.1	0.0
85	COc1ccc(NC(=O)N(C)C[C@@H]2Oc3ccc(NC(=O)C4CCCCC4)cc3C(=O)N([C@H](C)CO)C[C@H]2C)cc1
    2.0	0.0
